Bioassay records from PubChem.
Env fusion inh = inhibitors of HIV Env-mediated cell fusion | HeLa-JRFL Env/CEM21 cell fusion, luciferase | inhibition, % at 12.3 µM | 360,000 compounds, 1.1% hits | AID 651610;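 active = mean replicate inhibition score of at least 50 and every replicate individually at or above 50; inconclusive = only one of the two criteria met; inactive = mean below 50 and not all replicates reaching 50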;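 note: 0% = plate neutral controls and 100% = maraviroc near 300 nM; one replicate is shown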
Numbers without * were called inactive; ? = inconclusive; [ ] = dose if it differs, or a comment. A portion of the library; rates above refer to the full screens.

SMILES | Env fusion inh
COC(=O)[C@]12C[C@H](CC(=O)NCc3cccc4ccccc34)C(=O)N(Cc3ccc4c(c3)OCO4)C1=C[C@H](C(C)(C)C)O[C@@H]2C | 56*
C[C@H](CO)N1C[C@H](C)[C@@H](CN(C)C(=O)NC2CCCCC2)OCc2ccccc2-c2c(n(C)c3ccccc23)C1=O | 51[16.7 µM]
C[C@H]1CCCCO[C@@H](CN(C)Cc2ccccc2)[C@@H](C)CN([C@@H](C)CO)C(=O)c2cc(NC(=O)c3ccncc3)ccc2O1 | -7[16.7 µM]
C[C@@H]1CN([C@@H](C)CO)C(=O)c2ccccc2-c2ccccc2CO[C@H]1CN(C)C(=O)Nc1cccc(C(F)(F)F)c1 | 7[16.7 µM]
O=S(=O)(c1ccc(C(F)(F)F)cc1)N1CCCc2nc(-c3ccccc3)ccc21 | 35
COc1ccccc1CCn1cnc(-c2cccc(Br)c2)c1CC(C)C | 0
COc1ccccc1NC(=O)N[C@H]1CC[C@@H](CCn2cc(C3(O)CCCC3)nn2)O[C@H]1CO | 9[16.7 µM]
COC(=O)[C@]12C[C@H](CC(=O)N3CCOCC3)C(=O)N(CCc3ccc(OC)c(OC)c3)C1=C[C@H](C(C)(C)C)O[C@@H]2C | -31
Cn1cc(CC(=O)Nc2ccc(Oc3cccnc3)cc2)c2ccccc21 | 8
CN(C)Cc1c(C(C)(C)O)[nH]c2cc(C(F)(F)F)ccc12 | 7
CCCCOCCCNC(=O)C[C@H]1C[C@@]2(C(=O)OC)C(=C[C@H](C(C)(C)C)O[C@@H]2C)N(Cc2ccc3c(c2)OCO3)C1=O | 74*
CCCCCCCCN1C(=O)[C@@H](CC(=O)N2CCN(C(=O)c3ccco3)CC2)C[C@@]2(C(=O)OC)C1=C[C@H](C(C)(C)C)O[C@@H]2C | 27
C[C@@H]1CCCCO[C@H](CN(C)S(=O)(=O)c2cn(C)cn2)[C@@H](C)CN([C@H](C)CO)C(=O)c2cc(N(C)C)ccc2O1 | -11[16.7 µM]
C[C@H]1CN([C@@H](C)CO)C(=O)c2cc(NC(=O)C3CC3)ccc2O[C@H]1CN(C)Cc1ccc(C(=O)O)cc1 | -3[16.7 µM]
COc1ccc2c3c(n(C)c2c1)[C@H](CO)N(C(=O)C1CC1)CC31CCN(C(=O)C2CCOCC2)CC1 | -2[16.7 µM]
CO[C@H]1CN(C)C(=O)c2ccc(NC(=O)Nc3c(C)noc3C)cc2OC[C@H](C)NC[C@H]1C | -1[16.7 µM]
C[C@@H]1CN([C@H](C)CO)C(=O)c2cc(-c3ccc(F)cc3)cnc2O[C@@H]1CN(C)C(=O)Cc1ccccn1 | 11[16.7 µM]
CCC(=O)Nc1ccc2c(c1)OC[C@@H](C)N(C(=O)COC)C[C@H](C)[C@H](OC)CN(C)C2=O | 22[16.7 µM]
CC(C)CC#Cc1cnc2c(c1)C(=O)N([C@@H](C)CO)C[C@H](C)[C@@H](CN(C)C(=O)c1cccc(F)c1)O2 | -7[16.7 µM]
CCCNC(=O)C[C@@H]1C[C@@H]2c3cc(NC(=O)NC4CCCCC4)ccc3O[C@@H]2[C@@H](CO)O1 | -2[16.7 µM]
O=C(NCC(F)(F)F)[C@H]1[C@H](CO)[C@H]2Cn3c(cccc3=O)[C@@H]1N2CC1CCOCC1 | 0[16.7 µM]
CC(C)C[C@@H]1COCc2cn(nn2)CC[C@H](Cc2ccccc2)C(=O)N1 | 1[16.7 µM]
C[C@H](CO)N1C[C@H](C)[C@@H](CN(C)S(=O)(=O)c2cn(C)cn2)OCc2ccccc2-c2c(n(C)c3ccccc23)C1=O | 1[16.7 µM]
CO[C@@H]1CC[C@H]2CCN(C)C(=O)[C@@H](C)[C@H](OC)CN(C)C(=O)c3cc(C#N)ccc3OC[C@@H]1O2 | -6[16.7 µM]
C[C@@H]1CCCCO[C@H](CN(C)CC2CC2)[C@H](C)CN([C@H](C)CO)C(=O)c2cc(NC(=O)c3ccccc3)ccc2O1 | -10[16.7 µM]

Other compounds follow:
SMILES | Env fusion inh
C[C@H]1CN([C@@H](C)CO)C(=O)Cc2cc(N(C)C)ccc2O[C@H]1CN(C)S(=O)(=O)c1cccs1 | 6[16.7 µM]
Cc1cc(C(=O)Nc2ccc3c(c2)C(=O)N(C)[C@@H]2CC[C@@H](CC(=O)NCc4ccc(-c5ccccc5)cc4)O[C@H]2CO3)no1 | -23[16.7 µM]
C[C@H]1CN([C@@H](C)CO)C(=O)CCCn2cc(nn2)CO[C@H]1CN(C)C(=O)NC1CCCC1 | -6[16.7 µM]
Cc1nn(C)cc1NC(=O)C[C@@H]1CC[C@H]2[C@@H](COc3ccc(NC(=O)C4CCOCC4)cc3C(=O)N2C)O1 | 5[16.7 µM]
C[C@H](CO)N1C[C@H](C)[C@@H](CN(C)C(=O)C2CC2)Oc2cc(-c3ccc(C(=O)N(C)C)cc3)ccc2S1(=O)=O | 0[16.7 µM]
C[C@@H]1CN([C@H](C)CO)S(=O)(=O)c2ccc(C#CC(C)(C)O)cc2O[C@H]1CN(C)C(=O)C1CC1 | -45[16.7 µM]
C[C@@H]1CN([C@H](C)CO)C(=O)c2cc(NC(=O)CCCN(C)C)ccc2O[C@@H]1CN(C)Cc1ccc(Oc2ccccc2)cc1 | -11[16.7 µM]
COC(=O)C1=C(C)N(Cc2ccc(F)cc2)C(=S)NC1c1cccc(F)c1 (stereo unspecified) | -9
CO[C@@H]1CN(C)C(=O)c2cc(NC(=O)Nc3cccc(F)c3)ccc2OC[C@@H](C)N(C(=O)C2CC2)C[C@@H]1C | 4[16.7 µM]
CO[C@@H](C(=O)N(C)C[C@H]1OCc2ccccc2-c2c(n(C)c3ccccc23)C(=O)N([C@@H](C)CO)C[C@@H]1C)c1ccccc1 | 55*[16.7 µM]
C[C@H](C(=O)N(C)C[C@H]1OCc2ccccc2-c2ccccc2C(=O)N([C@@H](C)CO)C[C@H]1C)c1ccccc1 | 21[16.7 µM]
C[C@H](CO)N1C[C@H](C)[C@@H](CN(C)C)OCCCC[C@H](C)Oc2ccc(NS(=O)(=O)c3ccccc3)cc2C1=O | -6[16.7 µM]
CC(C)NC(=O)Nc1ccc2c(c1)C(=O)N([C@@H](C)CO)C[C@H](C)[C@@H](CN(C)C(=O)CCCN(C)C)OCCCC[C@H](C)O2 | 7[16.7 µM]
CC(=O)C1=C(C)N(Cc2ccc(F)cc2)C(=S)NC1c1ccc(Br)cc1 (stereo unspecified) | 32
COc1cccc(NC(=O)N(C)C[C@@H]2Oc3ncc(C#Cc4ccncc4)cc3C(=O)N([C@H](C)CO)C[C@H]2C)c1 | -9[16.7 µM]
C[C@@H]1CN([C@@H](C)CO)C(=O)c2cc(C3=CCCC3)cnc2O[C@H]1CN(C)C(=O)Nc1cccc(F)c1 | 3[16.7 µM]
CCC(=O)N1C[C@@H](C)[C@H](OC)CN(C)C(=O)c2ccc(NC(=O)c3ccccc3)cc2OC[C@@H]1C | -8[16.7 µM]
C[C@@H]1CN([C@H](C)CO)C(=O)c2cccc(NS(C)(=O)=O)c2O[C@H]1CN(C)Cc1ccc(Cl)c(Cl)c1 | 8[16.7 µM]
CO[C@H]1CN(C)C(=O)c2ccc(NC(=O)c3ccc4c(c3)OCO4)cc2OC[C@H](C)N(CCC(F)(F)F)C[C@@H]1C | 35[16.7 µM]
CO[C@@H]1CN(C)C(=O)c2ccc(NC(=O)C3CCC3)cc2OC[C@H](C)N(CC2CCCCC2)C[C@@H]1C | 7[16.7 µM]
CN1OC[C@@H]2CN(C(=O)c3ccc(C#N)cc3)[C@H](c3cccc(Br)c3)C[C@@H]21 | 6
C[C@@H]1CN([C@H](C)CO)C(=O)Cc2cc(NS(=O)(=O)c3ccc(F)cc3)ccc2O[C@H]1CN(C)Cc1ccc(-c2ccccc2)cc1 | -17[16.7 µM]
N#Cc1cc(F)cc(OCCCN2CCC(C(O)(c3ccccc3)c3ccccc3)CC2)c1 | ?
CS(=O)(=O)Nc1ccc2c(c1)[C@H]1C[C@H](CC(=O)NCCc3ccccc3)O[C@H](CO)[C@H]1O2 | -15[16.7 µM]
CO[C@H]1CC[C@H]2CCOc3ccc(C#N)cc3C(=O)N(C)C[C@@H](C)C(=O)N(C)C[C@@H]1O2 | 14[16.7 µM]

The final 4 records of the section above open the next one:
SMILES | Env fusion inh
C[C@@H]1CN([C@H](C)CO)C(=O)Cc2cc(NS(=O)(=O)c3ccc(F)cc3)ccc2O[C@H]1CN(C)Cc1ccc(-c2ccccc2)cc1 | -17[16.7 µM]
N#Cc1cc(F)cc(OCCCN2CCC(C(O)(c3ccccc3)c3ccccc3)CC2)c1 | ?
CS(=O)(=O)Nc1ccc2c(c1)[C@H]1C[C@H](CC(=O)NCCc3ccccc3)O[C@H](CO)[C@H]1O2 | -15[16.7 µM]
CO[C@H]1CC[C@H]2CCOc3ccc(C#N)cc3C(=O)N(C)C[C@@H](C)C(=O)N(C)C[C@@H]1O2 | 14[16.7 µM]
Cn1c(=O)oc2ccc(S(=O)(=O)Nc3ccc(Cl)cc3[N+](=O)[O-])cc21 | 3
O=C(C[C@@H]1C=C[C@@H](NC(=O)c2ccccn2)[C@@H](CO)O1)NCc1cc(F)cc(F)c1 | 2[16.7 µM]
CN1C(=O)c2cc(NC(=O)c3ccc(C(F)(F)F)cc3)ccc2OC[C@H]2O[C@H](CC(=O)NC3Cc4ccccc4C3)CC[C@H]21 | 27[16.7 µM]
O=C(N[C@@H]1C=C[C@@H](CC(=O)N2CCc3ccccc3C2)O[C@H]1CO)C1CC1 | 3[16.7 µM]
COc1ccc(-c2ccc3n(c2=O)C[C@@H]2N[C@H]3[C@H](C(=O)N3CCCCC3)[C@H]2CO)cc1 | -20[16.7 µM]
CO[C@H]1CC[C@@H]2CCN(C)C(=O)[C@@H](C)[C@H](OC)CN(C)C(=O)c3cccc(C#N)c3OC[C@H]1O2 | -13[16.7 µM]
CO[C@@H]1CN(C)C(=O)c2cc(NC(=O)C3CC3)ccc2OC[C@H](C)N(CCC(F)(F)F)C[C@H]1C | 2[16.7 µM]
C[C@H](CO)N1C[C@H](C)[C@H](CN(C)S(=O)(=O)CC(F)(F)F)OCc2ccccc2-c2ccccc2C1=O | 33[16.7 µM]
CN1c2ccc(C#Cc3cccnc3)cc2[C@@H]2[C@@H](CCN2C(=O)C2CCC2)[C@@H]1CO | 2[16.7 µM]
C[C@H]1CN([C@@H](C)CO)S(=O)(=O)c2ccc(C#CCN(C)C)cc2O[C@@H]1CN(C)C(=O)C1CCCCC1 | 3[16.7 µM]
CNC[C@H]1Oc2ncc(C#CC3CCCCC3)cc2C(=O)N([C@H](C)CO)C[C@H]1C | -5[16.7 µM]
COc1ccccc1CCn1cnc(-c2ccc(Cl)cc2)c1CC(C)C | 25
CO[C@H]1CC[C@H]2CCN(C)C(=O)C[C@H](c3ccccc3)CN(C)C(=O)c3cccc(C#N)c3OC[C@H]1O2 | -8[16.7 µM]
C[C@@H]1CCCCO[C@H](CN(C)Cc2ccccc2)[C@H](C)CN([C@H](C)CO)C(=O)c2cc(NS(C)(=O)=O)ccc2O1 | 2[16.7 µM]
CCCNC(=O)Nc1ccc2c(c1)C(=O)N(C)C[C@@H](OC)[C@H](C)CN(C(=O)C1CCCCC1)[C@@H](C)CO2 | -13[16.7 µM]
O=C(Cc1ccccn1)N1CC(=O)N2[C@H](CO)[C@H](c3ccc(C#CC4CCCC4)cc3)[C@H]2C1 | -12[16.7 µM]
CO[C@@H]1CN(C)C(=O)c2ccc(NS(=O)(=O)c3ccccc3)cc2OC[C@@H](C)N(Cc2cccnc2)C[C@@H]1C | -16[16.7 µM]
C[C@@H]1CN([C@@H](C)CO)C(=O)c2c(c3ccccc3n2C)-c2ccccc2CO[C@@H]1CN(C)S(=O)(=O)c1ccsc1 | -20[16.7 µM]
O=C([C@H]1[C@H](CO)[C@H]2Cn3c(ccc(C4=CCCC4)c3=O)[C@@H]1N2C(=O)c1ccncc1)N1CCOCC1 | 6[16.7 µM]
CO[C@H]1CN(C)C(=O)c2cc(NC(=O)Nc3ccc(Cl)cc3)ccc2OC[C@@H](C)N(C(=O)Nc2c(C)noc2C)C[C@H]1C | 5[16.7 µM]
CS(=O)(=O)Nc1ccc2c(c1)[C@@H]1C[C@H](CC(=O)NCc3ccc(Cl)cc3)O[C@@H](CO)[C@@H]1O2 | -10[16.7 µM]
COc1ccc2c(c1)[C@@]1(OCCC=C[C@H]1C)C(=O)N2CC1CC1 | 27
C=CCOC(=O)[C@H]1[C@@H]2C(=O)O[C@@H](c3ccccc3)[C@@H](c3ccccc3)N2[C@@H](c2ccc(OCCOC(=O)[C@@H]3C[C@@H]4C(=O)N[C@@H](CC(C)C)C(=O)N4[C@@H]3c3cccc(OCCO)c3)cc2)[C@]12C(=O)Nc1ccccc12 | 1[16.7 µM]
Cc1noc(C)c1NC(=O)N(C)C[C@@H]1Oc2ccc(NS(=O)(=O)c3c(C)noc3C)cc2C(=O)N([C@@H](C)CO)C[C@@H]1C | 21[16.7 µM]
C[C@H](CO)N1C[C@H](C)[C@H](CN(C)S(=O)(=O)Cc2ccccc2)OCc2ccccc2-c2c(n(C)c3ccccc23)C1=O | 38[16.7 µM]
C[C@H]1CN([C@@H](C)CO)C(=O)c2cc(NC(=O)CCN3CCOCC3)ccc2O[C@@H]1CN(C)Cc1ccc(C(F)(F)F)cc1 | 2[16.7 µM]

Molecules from the list above that contain bromine:
SMILES | Env fusion inh
COc1ccccc1CCn1cnc(-c2cccc(Br)c2)c1CC(C)C | 0
CC(=O)C1=C(C)N(Cc2ccc(F)cc2)C(=S)NC1c1ccc(Br)cc1 (stereo unspecified) | 32
CN1OC[C@@H]2CN(C(=O)c3ccc(C#N)cc3)[C@H](c3cccc(Br)c3)C[C@@H]21 | 6
